High-throughput results as filed in PubChem.
CDC25B CDK2 inh = human CDC25B-CDK2/CyclinA binding inhibition | P30305+P24941 | HTRF CDC25B-CDK2/CyclinA binding, anti-His/anti-Flag; active compounds read high | z-score (test concentration not listed) | hit rate 0.72% among 94,000;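 further: score is relative to mean and SD of negative controls; strong numbers were not always called active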
HIV TAR-Tat = HIV-1 TAR-Tat binding disruption. z-score (concentration not given with the values). hit rate 0.6% among 100,000. AID 1259389. HIV-1 TAR RNA, Tat peptide displacement FRET; active compounds read high;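 further: score is relative to mean and SD of negative controls; some compounds called inactive have numbers as strong as hits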
Starred values were filed as active, the others as inactive; x = not tested or not shown.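 How the source made its calls: active means z-score from 3 up in half or more of its runs; inactive means the rest.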

SMILES	CDC25B CDK2 inh	HIV TAR-Tat
CC1(C)OC(=O)C(=CNNc2ccc(C(F)(F)F)cc2)C(=O)O1	-1.4	x
O=S(=O)(c1ccccc1)n1nc(-c2ccccc2)nc1NCc1ccc(Cl)cc1	-0.83	0.33
O=C1c2nccnc2C(=O)N1c1ccc(F)cc1F	-1.2	-0.3
NC(=O)CN1C(=O)CCS(=O)(=O)c2ccccc21	-0.68	1.6
Cc1nn(S(=O)(=O)c2ccc(Cl)s2)c(C)c1[N+](=O)[O-]	-1.2	x
CCOc1cc2c(cc1OCC)C(C(=O)O)C(c1cc(Br)c(O)c(OC)c1)N(C)C2=O (configuration not stated)	-1.1	0.77
Cn1c(=O)c2c(nc(CN3CCN(c4ccccc4)CC3)n2Cc2cccc3ccccc23)n(C)c1=O	-0.64	0.96
COc1ccc(C(=O)OCc2cc(=O)n3nc(C(C)C)sc3n2)cc1OC	x	1.2
CC1CC(=O)N(CC(=O)N(C)C2CCCCC2)c2cc(S(=O)(=O)N3CCCCC3)ccc2S1 (configuration not stated)	x	0.19
CCN1CCN(C(=O)C2=C(C)C(=O)OC23CCN(S(C)(=O)=O)CC3)CC1	x	-0.12
Cc1cccc2cc3c(nc12)N(C(=O)c1ccccc1Br)CC3	1.8	0.26
O=C(OCCCN=C1NS(=O)(=O)c2ccccc21)c1ccc(F)cc1	-1.1	x
O=S(=O)(CC(O)Cn1ccc(C(F)(F)F)n1)c1ccc(Cl)cc1 (configuration not stated)	-1.5	x
COc1ccc(-c2cc(C)no2)cc1S(=O)(=O)NCCN(Cc1ccco1)C1CCCC1	x	1.8
Cc1cc2nc(COc3cccc(NC(=O)C(C)C)c3)cc(=O)n2o1	-1.5	0.97
O=C(NCc1ccncc1)c1cc(=O)c2ccccc2o1	-1.9	2.2
O=C(Nc1cccc(F)c1)C1CCCN1S(=O)(=O)c1cccc2cccnc12 (configuration not stated)	-0.88	x
Cc1nn(-c2ccc(N3CCCC3)nn2)c(C)c1CCC(=O)N1CCC(C)CC1	x	0.65
O=C(O)c1ccccc1N1C(=O)C2CC=CCC2C1=O (configuration not stated)	x	0.71
CCOC(=O)c1cn[nH]c1S(=O)(=O)N1CCN(c2ccc(F)cc2)CC1	x	2.5
N/C(=N\O)c1ncc([N+](=O)[O-])s1	1.3	x
O=C(CCC(=O)N1CCSc2ccccc21)N1CCC(Cc2ccccc2)CC1	x	2.7
Cc1ccc(S(=O)(=O)/N=C/N(C)C)cc1	-2.1	x
Cn1c(=O)c(=O)n(CC(=O)N2CCOCC2)c2ccccc21	x	0.91
COc1cc2c(cc1OC)n(CC(=O)N1CCc3ccccc31)n1c(C)cc(=O)nc21	-4.9	1.7
Cc1cc(C)n(-c2nnc(N3CCN(c4ccc(F)cc4)CC3)c3ccccc23)n1	x	1
Cc1ccc2nc(-c3ccncc3)c(Nc3ccccc3C)n2c1	-1.9	x
Cc1ccc(S(=O)(=O)NC(=O)N2CCCN(Cc3ccc(Cl)cc3Cl)CC2)cc1	-1.2	x
CCCC1c2ccc(C)n2CCN1C(=O)Nc1ccc(Cl)cc1 (configuration not stated)	-0.14	-6.9
Cc1cccn2c(=O)c(C(=O)NCc3cccs3)cnc12	x	1.1
COc1ccccc1-c1cc(C(=O)NCc2ccc(Cl)cc2)no1	-1.1	x
O=C(CN1CCOCC1)Nc1ccc2nc3n(c(=O)c2c1)CCCCC3	-0.5	x
O=c1cc2c3c(cc(O)cc3o1)OC2	-0.98	x
CCCN1C=C(OC(=O)c2ccc(Br)cc2)c2ccccc2S1(=O)=O	1.5	1.1
CCOC(=O)Cn1c(C2CC(=O)N(c3ccccc3Br)C2)nc2ccccc21 (configuration not stated)	-1.7	0.32
O=c1c2c(nc3c(-c4ccc(Cl)cc4)c[nH]n13)CCCC2	-0.66	1.2
CC(C)c1ccc(-c2nc(C(N)=O)c3[nH]c(=O)n(-c4ccc(F)cc4)c3n2)cc1	x	2.1
O=C(Cn1c2ccccc2n2nc(-c3cccs3)nc12)c1ccccc1	-12	0.94
Cc1cc(=O)n2nc(N3CCC(C(=O)NC4CCC(C)CC4)CC3)sc2n1 (configuration not stated)	-0.19	-0.41
CC1(C)CC(=O)C2=C(C1)OC(N)=C(C#N)C2c1ccccc1OCc1ccccc1Cl (configuration not stated)	0.46	x
c1ccc(C2CNCCc3ccccc32)cc1 (configuration not stated)	0.4	x
C=CCOC(=O)c1cn(CC)c2nc(C)ccc2c1=O	-0.46	-0.79
CCC(C)Cn1c(COc2ccc(OC)cc2)nc2ccccc21 (configuration not stated)	-1.4	x
CCOC(=O)N1CCN(C(=O)CSc2c3c(nc4cc(Cl)ccc24)CCCC3)CC1	-1.5	2.4
COc1cc(NC(=O)c2ccc(-c3cccc([N+](=O)[O-])c3)o2)ccc1NC(=O)c1ccco1	-3	x

An excerpt of these results, with values under each structure:
Results follow in this order: CDC25B CDK2 inh | HIV TAR-Tat
- CCOC(=O)N1CCN(C(=O)CSc2c3c(nc4cc(Cl)ccc24)CCCC3)CC1
    -1.5 | 2.4
- COc1cc(NC(=O)c2ccc(-c3cccc([N+](=O)[O-])c3)o2)ccc1NC(=O)c1ccco1
    -3 | x

Next part
SMILES	CDC25B CDK2 inh	HIV TAR-Tat
COCCn1c(SC(C)C(=O)OC)nnc1-c1c[nH]c2ccccc12 (configuration not stated)	-0.93	x
COc1ccccc1C(=O)NNc1cc(C(F)(F)F)ccn1	-0.79	x
CCOC(=O)c1c(C)oc2nc(C)nc(NCCOC)c12	x	-0.55
Cc1cc(NC(=O)CN(C2=NC3CS(=O)(=O)CC3S2)c2ccc(F)cc2)n[nH]1 (configuration not stated)	-1	x
CCCCCn1c(=O)c2c(nc3n2CCN3c2ccccc2)n(C)c1=O	x	3.1
CSc1nc(-c2cccs2)cc(C(F)(F)F)c1C#N	-0.75	x
COc1cc(OC)c(NC(=O)c2noc3c2CSc2ccccc2-3)cc1Cl	-1.3	0.77
Cc1cc(C)c(-c2c(Nc3ccc(C)c(N(C)C)c3)c(=O)c2=O)cc1C	x	-0.91
NS(=O)(=O)c1ccc(CCN[C@H]2CS(=O)(=O)C[C@@H]2S(=O)(=O)c2cccs2)cc1	-2.1	-0.7
CCc1cc2c(NCCCN3CCCc4ccccc43)ncnc2s1	x	0.37
O=C(CSCc1cc(=O)c2ccccc2[nH]1)Nc1ccccc1Cl	x	-0.74
NC(=O)Cn1c(=O)n(CCCCC(=O)NC2CCCC2)c(=O)c2ccccc21	-0.86	0.25
Cc1ccc2c(c1)-c1c(cnn1CC(=O)N(C)Cc1ccco1)CO2	-2	-0.65
CC(C)C(=O)Oc1ccc2c(=O)c(Oc3ccc(C(C)(C)C)cc3)coc2c1	-2.2	1.6
COc1cc(Nc2ncnc3onc(C)c23)cc(OC)c1	x	0.78
CSc1ncc(C(=O)NCCC(C)C)c(C)n1	x	-1.6
CCOC(=O)CC1(NS(=O)(=O)c2cc(Br)cc3c2N(C(C)=O)CC3)CCCCC1	x	1.4
COc1ccc(-c2noc(N(C)c3cccc(Cl)c3)n2)cc1	-1.3	0.71
CCCOC(=O)C1=C(C)NC2=C(C(=O)CCC2)C1c1cc(OC)ccc1OC (configuration not stated)	0.33	1.1
CC1CCN(C(=O)C2CCC(Cn3c(=O)c4sccc4n(C)c3=O)CC2)CC1 (configuration not stated)	x	0.7
O=c1ccc(=O)n(CCO)[nH]1	-2.7	x
COc1ccccc1C(=O)Nc1cc(C#N)c2sc3ccccc3n2c1=O	-0.57	0.71
NC(=O)CSC1=Nc2ccccc2C2=NC(CCC(=O)NCc3cccs3)C(=O)N12 (configuration not stated)	-0.55	x
CNC(=O)CSc1nccn1C1CCCCC1	x	1.2
OCCNc1nc2ccccc2n2nnnc12	0.49	0.18
CC1Oc2ccc(NC(=O)c3csnn3)cc2NC1=O (configuration not stated)	-0.04	-1.1
Cn1c(=O)c2c(nc3n2CCN(CCc2ccccc2)C3)n(C)c1=O	1.1	0.45
Cc1nn(Cc2ccc(C(=O)O)cc2)c(C)c1Cl	0.83	-0.21
Cc1c(-c2nc(-c3ccc4c(c3)OCO4)no2)nnn1-c1ccc(F)cc1F	x	1
Cc1ccc(-c2n[nH]c(=S)o2)cc1	-0.24	-1.2

In the list so far, these have a CF3 group:
SMILES	CDC25B CDK2 inh	HIV TAR-Tat
CC1(C)OC(=O)C(=CNNc2ccc(C(F)(F)F)cc2)C(=O)O1	-1.4	x
O=S(=O)(CC(O)Cn1ccc(C(F)(F)F)n1)c1ccc(Cl)cc1 (configuration not stated)	-1.5	x
COc1ccccc1C(=O)NNc1cc(C(F)(F)F)ccn1	-0.79	x
CSc1nc(-c2cccs2)cc(C(F)(F)F)c1C#N	-0.75	x

New compounds follow
SMILES	CDC25B CDK2 inh	HIV TAR-Tat
Cn1c(=O)c2c(-c3ccc(Cl)cc3)n(C3CCCCC3)cc2n(C)c1=O	-1.3	3.2
Cc1cccn2c(=O)c(C(=O)NCc3ccco3)c(O)nc12	0.8	0.39
COc1ccc(OC(C)c2nc(-c3ccc(C)cc3)no2)cc1 (configuration not stated)	-1.1	0.43
Cc1sc2ncnc(NC3CCN(Cc4ccccc4)CC3)c2c1C	x	0.77
CC(=O)N1c2ccc(S(=O)(=O)N3CCOCC3)cc2CC1C(=O)N1CCOCC1 (configuration not stated)	x	0.36
CC1(C)Cc2nc3sc(C(=O)O)c(N)c3cc2CO1	1.2	-1
CCOC(=O)N1CCN(c2c(-c3ccc4c(c3)OCC(=O)N4)c(=O)c2=O)CC1	x	-0.01
O=c1/c(=C/c2cc([N+](=O)[O-])c(N3CCOCC3)cc2N2CCOCC2)sc2nc3ccccc3n12	-1.9	x
O=C(CCCc1nc2cccnc2n1C1CCCCC1)N1CCCC1	x	0.17
O=C(NC1CCCCC1)C1=Cc2cc(Br)ccc2OC1	x	0.8
CCOC(=O)c1noc2ncnc(NC(C)CCc3ccco3)c12 (configuration not stated)	x	0.27
CSc1cccc(C(=O)Nc2nc(-c3nc4ccccc4s3)cs2)c1	x	1.6
Cn1c(=O)c2cnc(-c3ccc(C(F)(F)F)cc3)nc2n(C)c1=O	-1.5	x
COc1ccc(S(=O)(=O)c2nnn(-c3ccc(Cl)cc3)c2C)cc1	0.23	0.41
S=C(N/N=C/c1c[nH]c2ccccc12)NC1CC1	8.6	x
COc1cccc(N2CCN(Cc3nnc(-c4ccc5c(c4)OCO5)o3)CC2)c1	-1.6	2.2
CC(=O)Nc1ccc(OC(=O)c2cccc(Cl)c2)cc1	-0.54	x
COc1ccc(NS(=O)(=O)c2ccc(NS(=O)(=O)c3ccc(Cl)cc3)cc2)cc1	0.47	-0.37
Cc1cn2c(=O)cc(COC(=O)CSc3ccccc3)nc2s1	x	-0.1
Cc1nn(-c2ccccc2)c2c1C(c1c(F)cccc1Cl)C(C#N)=C(N)O2 (configuration not stated)	-1.7	x
O=C(NCc1ccco1)c1cnn2c3c(cnc12)CCCCCC3	x	-0.01
COc1ccc(-c2nnc(SCC(=O)c3ccc4c(c3)OCCO4)o2)cc1OC	-0.45	-0.54
CCN(CC)c1nc(SC)nc(-c2ccccc2)c1C#N	-1.4	0.75
O=C(CCCC(=O)N1CCCc2ccccc21)N1CCCc2ccccc21	-0.07	-0.13
Cn1nc(C(=O)NCc2ccco2)c2c1-c1ccccc1SC2	-0.42	1.3
CCc1nn(CC(=O)NCCN2CCOCC2)c(=O)c2cc3occc3n12	0.98	2.5
CCn1c2ccccc2c2nnc(N3CCC(C(N)=O)CC3)nc21	-0.22	1.6
COC(=O)c1c(C)nn(C(=O)c2cccs2)c1-c1snnc1C	-1.7	x
CN1CCN(Cc2c(O)ccc3c(=O)c(-c4cccc(Cl)c4)c(C(F)(F)F)oc23)CC1	-1.4	0.65
Cc1ccc(CNc2nc(N3CCN(CCO)CC3)nc3c2cnn3C)cc1	x	1
CCOCCCNc1ncnc2c1cnn2C	x	0.21
N#C/C(C(N)=O)=C1/SC=C(c2ccc(Br)cc2)N1Cc1ccccc1	-1.8	x
Cc1onc(-c2ccccc2)c1C(=O)OCC(=O)c1ccc(Br)cc1	-0.18	1.1
CSc1nc(O)c(C(c2ccccc2)c2ccccc2)c(=O)[nH]1	-1.4	x
CCN(CC)S(=O)(=O)c1ccc2c(c1)N(CC(=O)N1CCc3ccccc31)C(=O)CS2	-1.1	2.1
Nc1nc(N2CCOCC2)nc(Nc2cccc(Cl)c2)c1[N+](=O)[O-]	x	0.61
Cc1oc(-c2ccccc2)nc1CSc1nncn2c1cc1occc12	x	2.9
O=C(Nc1sc2c(c1C(=O)NCc1ccccc1)CCCC2)c1csnn1	-0.89	0.14
COc1cccc(-c2noc(N3CCN(c4ccccn4)CC3)n2)c1	x	-0.03
COc1ccc(/C(O)=C2\C(=O)C(=O)N(Cc3cccnc3)C2c2ccc(C)cc2)cc1 (configuration not stated)	-0.1	0.55
COc1nccn(Cc2ccc(Cl)cc2)c1=O	-1.7	2.4
CCOC(=O)Nc1ccc2c(c1)N(C(=O)N1CCOCC1)c1ccccc1CC2	-1.1	-1.8
O=C1CSC(=Nc2c(Br)cc(F)cc2Br)N1CCc1ccncc1	-0.27	x
O=C1CSC(=Nc2ccc(Cl)cc2)N1Cc1ccccc1Cl	-0.8	x
O=C1c2cccnc2C(=O)N1Cc1ccc(S(=O)(=O)NCc2ccc3c(c2)OCO3)s1	x	-0.29
